Bioassay records deposited in PubChem BioAssay by Fisher Drug Discovery Resource Center.
NPYLR7 ag: activates Aedes aegypti NPYLR7 receptor; HEK293T NPYLR7/Galpha15, GCaMP6s calcium fluorescence; activation, % at 10 µM; actives 0.15% (n = 270,000); AID 1259423; in the data active = activation above about 40%;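 also: 0% = vehicle and 100% = reference agonist at the receptor; some compounds past the cut are filed as inactive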
NPYLR7 ag max-min: further read-out of NPYLR7 ag, marked with its call; activation, %; measured here: Max-Min RFU normalised activation; some inactives read as strong as hits;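 span of the calcium signal over five minutes; 0% = vehicle and 100% = native peptide agonist; compound fluorescence can raise it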
* hit, by the source's call; & = joins results of further samples. This is a subset; count on the stated rates, not on these rows.

Every second line gives: NPYLR7 ag, NPYLR7 ag max-min
CCc1cc(N2CCN(c3ccccc3F)CC2)nc(SCc2cccc(C(=O)NCC3CCCO3)c2)n1 (stereo unspecified)
 : 10, -4
O=C(c1ccc(F)c(F)c1)N1CCc2ccccc2C1c1ccccc1Cl (stereo unspecified)
 : 23, 17
CN1CC2(CCN(C(=O)CCc3csc(N)n3)C2)OC1=O (stereo unspecified)
 : 12, 9
CN(Cc1cn[nH]c1-c1ccc(-c2ccccc2)cc1)CC(O)c1ccccc1 (stereo unspecified)
 : 6, 4
O=C1CCCN1CCCC(=O)N1CCc2c([nH]c3ccccc23)C1c1cccc(Cl)c1 (stereo unspecified)
 : -3, -6
COc1ccc(CCN(C)C2CCCC2S(C)(=O)=O)cc1 (stereo unspecified)
 : -9, 353
COc1cccc(N2CCN(C(=O)c3ccc4c(c3)OCO4)C(C)C2=O)c1 (stereo unspecified)
 : 13, 12
COCCN1CCN(C(=O)c2ccc(-c3cc(-c4ccc5c(c4)OCCO5)n[nH]3)cc2)CC1
 : 6, 1
CC(C)c1cc(CN2CCCC(CNC(=O)c3ccc(F)cc3)C2)[nH]n1 (stereo unspecified)
 : 8, 4
O=C1C2C3C=CC(C3)C2C(=O)N1c1cccc2ccccc12 (stereo unspecified)
 : -1, -4
CC(C)n1c(SCc2ccc(C(F)(F)F)cc2)nc2cc(S(=O)(=O)N3CCCC3)ccc21
 : 11, 3
Cc1cc(O)c(C2=Nc3ccccc3SC(c3ccccc3F)C2)c(=O)o1 (stereo unspecified)
 : 0, -2
CNC(=O)CCN(C)Cc1cc2n(n1)CCNC2
 : 18, 13
CC(C)(C)c1ccccc1NS(=O)(=O)c1ccc(Cl)s1
 : -3, -4
O=C(NC1CC1)C1CCN(C2CCN(C(=O)CSc3ccccc3)CC2)CC1
 : 6, 10

Further results follow.
Every second line gives: NPYLR7 ag, NPYLR7 ag max-min
Cn1nnc2c(=O)n(Cc3ccc(Cl)cc3)cnc21
 : 0, 14
COc1ccc(OCC(O)CN2CCC(=O)N(CC3CC3)Cc3sccc32)cc1 (stereo unspecified)
 : 23, 32
CCCCN(CC(=O)N1CCc2sccc2C1c1ccc(OC)cc1)S(C)(=O)=O (stereo unspecified)
 : 21, 31
CCCNC(=O)C(=O)Nc1cc(Br)ccc1F
 : -1, 46
CCn1c(C)c(C(=O)CN(CC2CCCO2)S(=O)(=O)c2ccc(Cl)cc2)c(C)c1C(=O)OC (stereo unspecified)
 : -14, -3
COc1ccc(C(=O)NC(C)c2ccc(Cl)cc2Cl)cc1 (stereo unspecified)
 : -6, -8
O=C(N=Nc1c(O)[nH]c2ccccc12)c1cc(-c2cccc3ccccc23)n[nH]1
 : -5, -3
O=S(=O)(Cc1ccccc1)NCCOc1ccc2nnc(-c3ccccc3)n2n1
 : -4, -5
CCC1c2ccccc2CCN1C(=O)c1ccc(C(=O)OC)cc1 (stereo unspecified)
 : 2, 1
Cc1cccc(-c2cn[nH]c2C2CCN(C(=O)c3cnn4ccccc34)CC2)c1
 : 0, -1
CN1C(=C/C=N\Nc2ccc([N+](=O)[O-])cc2)C(C)(C)c2ccccc21
 : 0, -6
Cc1ccc(NC(=O)CSc2nnc3ccc(-c4cccnc4)nn23)cc1
 : -2, 0
CC1(C)Cc2ccccc2C(c2nc3n(c2O)C(C)(C)Cc2ccccc2-3)=N1
 : 0, -2
NS(=O)(=O)CC1CCCN(c2ccccc2S(=O)(=O)C(F)(F)F)C1 (stereo unspecified)
 : 1, -1
Fc1ccc(-c2nnc3n2N=C2CCCCC2S3)cc1 (stereo unspecified)
 : 0, 21

(more compounds)
Every second line gives: NPYLR7 ag, NPYLR7 ag max-min
COc1cc(C(=O)NC2CCOC2)cc(OC)c1Br (stereo unspecified)
 : -24, -25
Cc1cn2c3c(=O)[nH]c(=O)n(C)c3nc2n1CCCN1CCN(c2ccccc2F)CC1
 : -14, -15
COc1cc(C)ccc1S(=O)(=O)NC(=O)C1(C)CCN1C(=O)C1(c2ccccc2)CCCC1 (stereo unspecified)
 : 2, 4
CC(C)c1nnc(CN2CC[C@H](CO)[C@@H](O)C2)o1
 : 3, 0
CC(C)c1cc(CN2CCN(C3CCN(C(C)C)CC3)C(CCO)C2)[nH]n1 (stereo unspecified)
 : 5, 4
O=C(/C=C/c1cccs1)N(Cc1ccccn1)c1nc2ccc(F)cc2s1
 : 3, -4
O=C(C(F)F)N1CCC(n2cnc3ccccc32)CC1
 : 3, 1
Cc1cc(S(=O)(=O)N2CCN(C(=O)C3CC(=O)Nc4ccccc43)CC2)ccc1Br (stereo unspecified)
 : 2, -1
O=C1NC(=S)C(=Cc2ccc(-c3cc(Cl)ccc3Cl)o2)S1
 : 6, 12
O=C(O)c1c[nH]c2c(C(F)(F)F)cccc2c1=O
 : -2, 1
CSc1nnc2c(n1)OC(c1ccc(Br)s1)Nc1ccccc1-2 (stereo unspecified)
 : -4, -5
CCOC(=O)N1CCC(N2CCC(CCc3ccccc3)(C(=O)OCC)CC2)CC1
 : 2, 0
CCOc1ccc(-c2cn3c(CC(=O)N4CCCCCC4)csc3n2)cc1
 : 2, 0
C=CCSc1nc2c(c(=O)[nH]c(=O)n2C)n1CCCCCC
 : 3, -1
CCCNC(=O)N(Cc1ccco1)Cc1nccn1Cc1ccccc1C(F)(F)F
 : 6, 9

(more compounds)
Every second line gives: NPYLR7 ag, NPYLR7 ag max-min
COc1ccc(F)c(CN2CCN(C)C(=O)C2C)c1Cl (stereo unspecified)
 : 4, 1
Cc1ccc(-c2nc(=S)c3c([nH]2)Oc2cc(O)ccc2C3)cc1
 : 7, 7
COC(=O)c1ccc(COC(CN2CCN(C(=O)c3c(-c4ccccc4Cl)noc3C)CC2)c2cccc(OC)c2)cc1 (stereo unspecified)
 : 7, 3
O=C(NCCOc1ccc(F)cc1F)NC1CCN(C2CC2)CC1
 : 2, 1
COc1cc(Cl)cc(CN2CCC(CNC(C)=O)C2)c1OC (stereo unspecified)
 : 18, 16
CCOC(=O)C1CCCN(C(=O)c2ccc(Nc3c(Oc4ccc5c(c4)OCO5)cnn(-c4ccccc4)c3=O)cc2)C1 (stereo unspecified)
 : 0, 0
Cc1nc2ccccc2n1CCNC(C(=O)N1CCOCC1)c1ccccc1 (stereo unspecified)
 : 4, 2
CC(=O)N(CN1C(=O)c2ccccc2C1=O)c1ccc(Br)cc1
 : 6, 8
OCc1ccc(-c2nccn2CC(c2cccnc2)N2CCOCC2)o1 (stereo unspecified)
 : 6, -4
OCc1cc(-c2ccccc2F)on1
 : 1, 0
O=C(C=Cc1nc2ccccc2o1)N1CCCSc2ccccc21
 : 9, 11
c1ccc([C@@H]2C[C@@H]3C[C@H](Nc4ccccn4)C[C@@H]3CO2)cc1
 : 0, 2
Cc1nn2c(C(F)(F)F)cc(-c3ccc(Cl)cc3)nc2c1C(=O)Nc1ccc(F)cc1F
 : -6, -1
Cc1nc(N2CCCC2)c2sc(=S)n(C)c2n1
 : 0, -3
CCOCCn1cc(C2CCN(C(=O)c3cnn(-c4ccccc4)c3C(F)(F)F)CC2)c2ccccc21
 : 16, 3

In the list so far, these have a CF3 group.
Every second line gives: NPYLR7 ag, NPYLR7 ag max-min
CC(C)n1c(SCc2ccc(C(F)(F)F)cc2)nc2cc(S(=O)(=O)N3CCCC3)ccc21
 : 11, 3
NS(=O)(=O)CC1CCCN(c2ccccc2S(=O)(=O)C(F)(F)F)C1 (stereo unspecified)
 : 1, -1
O=C(O)c1c[nH]c2c(C(F)(F)F)cccc2c1=O
 : -2, 1
CCCNC(=O)N(Cc1ccco1)Cc1nccn1Cc1ccccc1C(F)(F)F
 : 6, 9
Cc1nn2c(C(F)(F)F)cc(-c3ccc(Cl)cc3)nc2c1C(=O)Nc1ccc(F)cc1F
 : -6, -1
CCOCCn1cc(C2CCN(C(=O)c3cnn(-c4ccccc4)c3C(F)(F)F)CC2)c2ccccc21
 : 16, 3

Record cards, from the list above:
Profile of c1ccc([C@@H]2C[C@@H]3C[C@H](Nc4ccccn4)C[C@@H]3CO2)cc1 : NPYLR7 ag = 0; NPYLR7 ag max-min = 2
Profile of Cc1nc(N2CCCC2)c2sc(=S)n(C)c2n1 : NPYLR7 ag = 0; NPYLR7 ag max-min = -3

(continued)
Every second line gives: NPYLR7 ag, NPYLR7 ag max-min
CC1=CC[C@@H]2CN(C(=O)c3ccc(-c4nnn(C)n4)cc3)C[C@@H]2C1
 : 2, 0
O=C(c1csc(-c2cccs2)n1)N1CCc2c([nH]c3ccccc23)C1c1ccccn1 (stereo unspecified)
 : 14&-6, 2&-8
CCOC(=O)C1(Cc2ccccc2C(F)(F)F)CCN(C2CCSCC2)CC1
 : 5, 16
C=CCn1c(SCc2ccc(C(=O)NCc3cccc(C(F)(F)F)c3)cc2)nnc1-c1ccccc1[N+](=O)[O-]
 : 34, 28
COc1cccc(CNC(=O)CSc2nc3c(-c4ccccc4)c[nH]c3c(=O)n2C)c1
 : -4, -9
COc1ccc(CC(=O)NCc2cc(C)cc3c(C)c(C)[nH]c23)cc1OC
 : 4, 0
CCn1c(C)nnc1SCCn1cc(-c2cccc(O)c2)nn1
 : -4, 1
COc1ccc(C)cc1S(=O)(=O)N1CCN(c2cccc(C)c2C)CC1
 : 6, 0
COCCOCC(=O)Nc1ccc(-c2onc3c2CCc2cc(OC)ccc2-3)cc1
 : 4, -2
CCOc1cccc2sc(N(CCn3nc(C)cc3C)C(=O)c3ccccc3S(C)(=O)=O)nc12
 : -16, -18
CCN(CC)c1ccc(Cl)cc1N
 : 4, -2
CCc1[nH]n(C(C)(C)C)c(=O)c1C1=C(N2CCOCC2)C(=O)N(Cc2ccccc2)C1=O
 : 18, 18
Cc1noc(-c2ccc(OC(F)(F)F)cc2)c1C(=O)NCCC1(C)OCCO1
 : 15, 14
CN(C)c1nc(N)nc(/C(C#N)=C/c2ccc(-c3ccccc3)s2)n1
 : 2, 3
Cc1nccn1CC1CCNCC1
 : -3, -3

(list continues)
Every second line gives: NPYLR7 ag, NPYLR7 ag max-min
O=C(CCc1ccsc1)N1CCOC(CCCc2ccccc2)C1 (stereo unspecified)
 : 21, 15
CC(C)CCN(Cc1cccs1)CC(O)c1ccccc1 (stereo unspecified)
 : -1, 12
COCCNC(=O)C(C)n1c(=O)n(-c2ccccc2F)c(=O)c2ccccc21 (stereo unspecified)
 : 0, 7
CCc1[nH]n(C)c(=O)c1C1=C(N2CCCCC2)C(=O)N(c2cc(C)ccc2OC)C1=O
 : -4, -4
CCCn1c(=O)c(C(=O)O)nn(-c2ccc(Cl)cc2)c1=O
 : 25, 26
c1ccc(NCn2cncn2)nc1
 : 3, -2
Cc1ccc(Cn2ncc3c(C(=O)OC4CCCCC4=O)cc(C)nc32)cc1 (stereo unspecified)
 : 0, -3
Cc1cc(-c2cc(C)c3cc4c(cc3n2)OCO4)c(C)s1
 : 9, 14
CCNC(=O)N1CCN(C(C(=O)NCCCN2CCOCC2)C2CCCC2)CC1 (stereo unspecified)
 : -23, -21
CCN(CC)CC1CCN(C(=O)Nc2nc3ccccc3s2)CC1
 : -7, -5
CN(C(=O)COC(=O)C1C2CC3CC(C2)CC1C3)C1CC1 (stereo unspecified)
 : 11, 7
COc1cc(NS(=O)(=O)c2cccs2)c(C(=O)O)c(OC)c1
 : 11, 8
CC(C=NN=c1sc2ccccc2n1C)=Cc1ccccc1
 : 2, 0
COCCN=C(NC(=O)c1cccs1)OCC(C)C
 : -1, 1
OCCNc1cc(-c2cc(CO)ccn2)c2cc[nH]c2n1
 : -8, -10

Next section.
Every second line gives: NPYLR7 ag, NPYLR7 ag max-min
Cc1cnc(CNC(=O)NCCOc2ncccc2Cl)s1
 : 2, -1
COc1cc(NC(=O)CSc2nccn3nc(-c4ccc(C)cc4)cc23)cc(OC)c1OC
 : 2, -6
CCOCCn1nc(C)cc1C(=O)N1CCNCC1C(=O)N1CCCC1 (stereo unspecified)
 : 21, 11
Cc1cccc2nc(C(=O)Nn3cnc4c(cnn4C)c3=O)cn12
 : -2, -4
O=C(N1CCc2c(sc3[nH]c(=O)n(Cc4ccccc4)c(=O)c23)C1)C1(c2ccccc2)CC1
 : 2, -2
CN(C)C(C)(C)CNC(=O)c1cc2c(F)cccc2s1
 : 0, 2
C#CCOCC(O)CN(Cc1ccc(F)cc1)Cc1ccsc1 (stereo unspecified)
 : -6, 5
CCCCCCCCON1C(=O)C2C3C=CC(O3)C2C1=O (stereo unspecified)
 : -1, 23
C=CCn1ncc(CN2CCC3(CCNCC3)CC2)c1C
 : 19, 10
NC1CCCN(c2nnnn2-c2ccc(-c3ccccc3)cc2)CC1 (stereo unspecified)
 : 5, -1
O=C(NCCN1CCCCC1)c1cc(-c2ccccc2F)nc2cc(-c3ccccc3)nn12
 : -3, -1
COc1ccc(OCCn2nnc(-c3ccc(OC)c(OC)c3)n2)cc1
 : 11, 13
Cc1ccc(C)c(Cn2nc(-c3ccco3)c3sc(N4CCOCC4)nc3c2=O)c1
 : 0, -5
COc1ccc(C2C(C#N)=C(N=CN(C)C)Oc3c2c(C)nn3-c2ccccc2)cc1 (stereo unspecified)
 : -7, -14
CCOC(=O)[C@@H]1[C@@H](OC(N)=O)C(=O)N(Cc2ccccc2)C12CCN(S(C)(=O)=O)CC2
 : 23, 33

Carrying on:
Every second line gives: NPYLR7 ag, NPYLR7 ag max-min
Cc1cn2c3c(=O)n(C)c(=O)n(C)c3nc2n1CCN1CCOCC1
 : 2, 7
O=C(N1CCN(c2nccc(-c3cccc(C(F)(F)F)c3)n2)CC1)C(F)(F)C(F)(F)C(F)(F)F
 : 10, 1
Cc1cc(C(F)(F)F)c2c(C)nn(-c3ccccc3)c2n1
 : 1, 0
COc1ccccc1NC(=O)NCCNc1nc(C)cc(N(C)C)n1
 : -1, -5
